Compound activity deposited in PubChem by Broad Institute.
Env fusion inh – inhibitors of HIV Env-mediated cell fusion; HeLa-JRFL Env/CEM21 cell fusion, luciferase; inhibition, % at 12.3 µM; hit rate 1.1% among 360,000; AID 651610;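 active = mean replicate inhibition score of at least 50 and every replicate individually at or above 50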;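 note: 0% = plate neutral controls and 100% = maraviroc near 300 nM; one replicate is shown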
Yeast UUG start – alters start codon recognition fidelity in yeast; S. cerevisiae UUG-firefly luciferase reporter, luminescence/redox ratio; activity score, % at 18.7 µM; hit rate 0.13% among 350,000;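 active = replicate mean at a twofold rise or more, about +100% in these data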;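 note: firefly luciferase made from a UUG start codon reports start codon fidelity; reporter light over untreated wells divided by growth signal over untreated wells; some hits fall short of that in this replicate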
* hit, by the source's call; [ ] = another dose, or the depositor's remark. Some of the compounds tested; rates above refer to the full screens.

SMILES	Env fusion inh	Yeast UUG start
Cc1ccc(S(=O)(=O)Nc2ccc3c(c2)C(=O)N([C@@H](C)CO)C[C@@H](C)[C@H](CN(C)C(=O)c2ccncc2)OCCCC[C@H](C)O3)cc1	-4.3[16.7 µM]	7.6
COc1cccc(S(=O)(=O)N[C@@H]2CC[C@@H](CCn3cc(-c4ccc(F)cc4)nn3)O[C@@H]2CO)c1	3.5[16.7 µM]	0.7
O=C(NCC[C@@H]1CC[C@H](NS(=O)(=O)c2ccccc2)[C@@H](CO)O1)c1ccc2c(c1)OCO2	12.2[16.7 µM]	24.3
C[C@H](CO)N1C[C@H](C)[C@@H](CN(C)C(=O)CCC(F)(F)F)OCCCC[C@H](C)Oc2ccc(NC(=O)Cc3ccccc3)cc2C1=O	-2.9[16.7 µM]	8.2
C[C@H](CO)N1C[C@H](C)[C@@H](CN(C)Cc2ccc(Oc3ccccc3)cc2)Oc2ccc(NC(=O)Cc3cn(C)c4ccccc34)cc2CC1=O	-64.8[16.7 µM]	10.4
C[C@@H]1CCCCO[C@H](CN(C)Cc2ccc(C(=O)O)cc2)[C@@H](C)CN([C@H](C)CO)C(=O)c2cc(NC(=O)Nc3ccc(F)cc3)ccc2O1	6.7[16.7 µM]	-6.2
C/C=C/c1cnc2c(c1)C(=O)N([C@H](C)CO)C[C@@H](C)[C@@H](CN(C)S(=O)(=O)c1ccc(OC)cc1)O2	-3.1[16.7 µM]	-12.3
CC(C)NC(=O)NCC[C@@H]1CC[C@H](NC(=O)c2ccc(F)cc2)[C@@H](CO)O1	-5.0[16.7 µM]	-4.9
C[C@@H]1CN([C@H](C)CO)S(=O)(=O)c2ccc(C#CC(C)(C)O)cc2O[C@@H]1CN(C)Cc1ccncc1	-26.6[16.7 µM]	-11.5
C[C@H](CO)N1C[C@H](C)[C@@H](CN(C)C(=O)Nc2ccc3c(c2)OCO3)Oc2ccc(NC(=O)Nc3ccccc3)cc2C1=O	6.9[16.7 µM]	-4.5
C[C@H]1CCCCO[C@H](CN(C)C(=O)CCCN(C)C)[C@@H](C)CN([C@@H](C)CO)C(=O)c2cc(NC(=O)Nc3ccc4c(c3)OCO4)ccc2O1	10.0[16.7 µM]	-1.4
C[C@H]1CN([C@@H](C)CO)C(=O)c2cc(-c3ccc(C#N)cc3)cnc2O[C@@H]1CN(C)C(=O)Nc1ccc(F)cc1	-46.9[16.7 µM]	-5.2
C[C@@H]1CN([C@H](C)CO)C(=O)c2cc(-c3ccccc3F)cnc2O[C@H]1CN(C)C(=O)NC1CCCC1	-15.9[16.7 µM]	19.7
C[C@@H]1CN([C@@H](C)CO)C(=O)c2cc(NS(C)(=O)=O)ccc2O[C@@H](C)CCCCO[C@@H]1CN(C)C(=O)C1CCCCC1	-8.8[16.7 µM]	23.8
CC(C)NC(=O)N(C)C[C@@H]1Oc2c(NC(=O)NC3CCCCC3)cccc2C(=O)N([C@@H](C)CO)C[C@@H]1C	-7.8[16.7 µM]	3.7
COc1ccc(S(=O)(=O)Nc2ccc3c(c2)C(=O)N([C@H](C)CO)C[C@H](C)[C@H](CN(C)C(=O)Nc2ccc(F)cc2)OCCCC[C@@H](C)O3)cc1	2.1[16.7 µM]	-9.8
C[C@H]1CN([C@@H](C)CO)C(=O)Cc2cc(NC(=O)Nc3ccc(F)cc3)ccc2O[C@H]1CN(C)Cc1ccc(C(=O)O)cc1	6.0[16.7 µM]	4.0
CNC[C@@H]1Oc2ccc(NC(=O)Nc3cccc4ccccc34)cc2CC(=O)N([C@@H](C)CO)C[C@@H]1C	-3.2[16.7 µM]	13.2
COc1ccc([Si](C)(C)[C@@H]2[C@@H](CCO)O[C@]3(C(=O)N(C)c4ccccc43)[C@H]2C)cc1	28.8[16.7 µM]	22.2
CC(C)NC(=O)N(C)C[C@H]1Oc2cc(Br)ccc2S(=O)(=O)N([C@@H](C)CO)C[C@@H]1C	11.0[16.7 µM]	4.7
C/C=C/c1ccc2c(c1)O[C@H](CN(C)C(=O)COC)[C@@H](C)CN([C@@H](C)CO)S2(=O)=O	-0.5[16.7 µM]	-8.6
C[C@@H]1CN([C@H](C)CO)C(=O)c2cccc(N(C)C)c2O[C@H]1CN(C)S(C)(=O)=O	4.3[16.7 µM]	-3.1
COCC#Cc1ccc2c(c1)O[C@@H](CN(C)Cc1ccc(F)cc1)[C@@H](C)CN([C@H](C)CO)S2(=O)=O	12.9[16.7 µM]	1.1
C[C@@H]1CN([C@H](C)CO)S(=O)(=O)c2ccc(-c3ccc(F)cc3)cc2O[C@@H]1CN(C)S(C)(=O)=O	-14.0[16.7 µM]	3.4
C[C@@H]1CN([C@H](C)CO)C(=O)c2cc(-c3ccccc3F)cnc2O[C@H]1CN(C)Cc1ccc(F)cc1	11.2[16.7 µM]	-9.9
COc1ccc(S(=O)(=O)Nc2ccc3c(c2)C(=O)N([C@@H](C)CO)C[C@H](C)[C@H](CN(C)C(=O)c2ccccc2)OCCCC[C@@H](C)O3)cc1	-11.2[16.7 µM]	24.3
C[C@@H]1CN([C@H](C)CO)C(=O)c2cc(NS(=O)(=O)c3ccc(F)cc3)ccc2O[C@@H](C)CCCCO[C@@H]1CN(C)S(=O)(=O)c1ccc(F)cc1	-71.3[16.7 µM]	-4.5
Cc1ccc(S(=O)(=O)N(C)C[C@H]2OCCCC[C@@H](C)Oc3ccc(NS(=O)(=O)c4cccs4)cc3C(=O)N([C@@H](C)CO)C[C@H]2C)cc1	10.2[16.7 µM]	8.7
CCC(=O)N(C)C[C@H]1Oc2ncc(C#C[C@H](C)O)cc2C(=O)N([C@@H](C)CO)C[C@@H]1C	17.8[16.7 µM]	-14.0
C[C@@H]1CN([C@@H](C)CO)C(=O)c2cc(C#CC3CCCCC3)cnc2O[C@@H]1CN(C)Cc1cncnc1	1.7[16.7 µM]	4.2
Cc1ccc(S(=O)(=O)N(C)C[C@H]2OCCCC[C@@H](C)Oc3ccc(NC(=O)C4CCCCC4)cc3C(=O)N([C@@H](C)CO)C[C@@H]2C)cc1	-2.0[16.7 µM]	-8.5
CN(C)CC(=O)N[C@@H]1CC[C@@H](CCNC(=O)C2CCCC2)O[C@H]1CO	2.8[16.7 µM]	6.4
C[C@H]1CN([C@@H](C)CO)C(=O)c2cc(NC(=O)CCC(F)(F)F)ccc2O[C@@H]1CN(C)CC1CC1	7.5[16.7 µM]	-13.4
COc1ccc(NC(=O)N(C)C[C@H]2Oc3ccc(NC(=O)Nc4c(C)noc4C)cc3CC(=O)N([C@H](C)CO)C[C@H]2C)cc1	11.7[16.7 µM]	2.1
CCCNC(=O)N(C)C[C@H]1Oc2cc(-c3ccccc3F)ccc2S(=O)(=O)N([C@@H](C)CO)C[C@H]1C	8.1[16.7 µM]	5.8
COc1ccc(S(=O)(=O)N(C)C[C@@H]2OCCCC[C@H](C)Oc3ccc(NC(=O)c4ccncc4)cc3C(=O)N([C@@H](C)CO)C[C@H]2C)cc1	-7.1[16.7 µM]	4.3
CCC(=O)N(C)C[C@@H]1Oc2cc(C#CCC(C)C)ccc2S(=O)(=O)N([C@H](C)CO)C[C@H]1C	35.5[16.7 µM]	19.4
C[C@H](CO)N1C[C@H](C)[C@H](CN(C)S(=O)(=O)c2ccccc2)Oc2ccc(NC(=O)Cn3cnnn3)cc2CC1=O	65.2*[16.7 µM]	3.0
C[C@H](CO)N1C[C@H](C)[C@@H](CN(C)C(=O)C2CC2)Oc2ncc(C#CC3CCCC3)cc2C1=O	15.4[16.7 µM]	-1.2
C[C@@H]1CCCCO[C@H](CN(C)C(=O)Cc2ccccc2)[C@@H](C)CN([C@H](C)CO)C(=O)c2cc(NS(=O)(=O)c3cn(C)cn3)ccc2O1	9.7[16.7 µM]	-7.5
C[C@@H]1CCCCO[C@H](CN(C)C(=O)Nc2ccc(C(F)(F)F)cc2)[C@H](C)CN([C@H](C)CO)C(=O)c2cc(NC(=O)c3ccncc3)ccc2O1	17.2[16.7 µM]	1.5
Cc1noc(C)c1NC(=O)N(C)C[C@@H]1OCCCC[C@@H](C)Oc2ccc(NS(C)(=O)=O)cc2C(=O)N([C@H](C)CO)C[C@@H]1C	-26.9[16.7 µM]	-13.9
Cc1ccc(S(=O)(=O)N(C)C[C@@H]2OCCCC[C@@H](C)Oc3ccc(NC(=O)NC4CCCCC4)cc3C(=O)N([C@H](C)CO)C[C@@H]2C)cc1	0.3[16.7 µM]	-6.0
C[C@H](CO)N1C[C@H](C)[C@H](CN(C)S(=O)(=O)c2ccc(Cl)cc2)Oc2ccc(NC(=O)Nc3ccc(F)cc3)cc2CC1=O	-82.5[16.7 µM]	-8.0
C[C@H](CO)N1C[C@H](C)[C@@H](CN(C)S(=O)(=O)c2cccc(F)c2)Oc2ncc(-c3cccc(C(=O)N(C)C)c3)cc2C1=O	-2.6[16.7 µM]	-1.5
C[C@@H](NC(=O)C[C@H]1C[C@@H]2c3cc(NC(=O)CN(C)C)ccc3O[C@@H]2[C@H](CO)O1)c1ccccc1	-10.3[16.7 µM]	40.1
COc1ccc(CN(C)C[C@@H]2Oc3ccc(NC(=O)Nc4ccccc4)cc3C(=O)N([C@H](C)CO)C[C@@H]2C)cc1	11.9[16.7 µM]	-4.8
C[C@@H]1CN([C@@H](C)CO)C(=O)c2cc(NS(=O)(=O)c3ccc(Cl)cc3)ccc2O[C@@H]1CN(C)S(=O)(=O)c1ccccc1	-28.7[16.7 µM]	-8.0
CO[C@@H]1CN(C)C(=O)c2cc(NC(=O)c3ccc4c(c3)OCO4)ccc2OC[C@H](C)NC[C@@H]1C	-16.1[16.7 µM]	-11.2
CCCC#Cc1cnc2c(c1)C(=O)N([C@H](C)CO)C[C@H](C)[C@H](CN(C)C(=O)C1CCC1)O2	9.4[16.7 µM]	-3.7

2 entries drawn at random from the list so far:
SMILES	Env fusion inh	Yeast UUG start
COc1ccc(CN(C)C[C@@H]2Oc3ccc(NC(=O)Nc4ccccc4)cc3C(=O)N([C@H](C)CO)C[C@@H]2C)cc1	11.9[16.7 µM]	-4.8
C[C@@H]1CCCCO[C@H](CN(C)C(=O)Nc2ccc(C(F)(F)F)cc2)[C@H](C)CN([C@H](C)CO)C(=O)c2cc(NC(=O)c3ccncc3)ccc2O1	17.2[16.7 µM]	1.5

Going on with the list.
SMILES	Env fusion inh	Yeast UUG start
Cc1ccc(S(=O)(=O)N(C)C[C@H]2OCCCC[C@@H](C)Oc3ccc(N(C)C)cc3C(=O)N([C@@H](C)CO)C[C@H]2C)cc1	-5.5[16.7 µM]	16.7
CN1C(=O)c2cc(NC(=O)c3cccc(F)c3)ccc2OC[C@@H]2O[C@@H](CC(=O)NCc3ccccc3)CC[C@H]21	28.2[16.7 µM]	17.3
C[C@@H]1CN([C@@H](C)CO)S(=O)(=O)c2ccc(C#Cc3ccccc3)cc2O[C@H]1CN(C)S(C)(=O)=O	-0.4[16.7 µM]	10.6
CCS(=O)(=O)N[C@@H]1CC[C@@H](CC(=O)NC2Cc3ccccc3C2)O[C@@H]1CO	-1.7[16.7 µM]	-11.9
CCCC#Cc1cnc2c(c1)C(=O)N([C@@H](C)CO)C[C@H](C)[C@@H](CN(C)C(=O)c1ccccc1)O2	-18.6[16.7 µM]	10.0
CO[C@@H]1CN(C)C(=O)c2cc(NC(=O)Nc3ccccc3)ccc2OC[C@@H](C)NC[C@@H]1C	-13.2[16.7 µM]	-9.0
C[C@@H]1CCCCO[C@@H](CN(C)S(=O)(=O)c2ccccc2)[C@@H](C)CN([C@@H](C)CO)C(=O)c2cc(NC(=O)CCCN(C)C)ccc2O1	21.4[16.7 µM]	39.6
CC(C)C#Cc1cnc2c(c1)C(=O)N([C@H](C)CO)C[C@H](C)[C@H](CN(C)C(=O)CN1CCOCC1)O2	-13.0[16.7 µM]	-4.7
CCC(=O)Nc1ccc2c(c1)C(=O)N(C)[C@@H]1CC[C@H](CC(=O)N3CCc4ccccc4C3)O[C@@H]1CO2	18.7[16.7 µM]	1.6
C[C@H]1CN([C@@H](C)CO)C(=O)Cc2cc(NS(=O)(=O)c3ccc(F)cc3)ccc2O[C@@H]1CN(C)S(=O)(=O)c1cn(C)cn1	-31.5[16.7 µM]	-5.2

In the list so far, these have a CF3 group:
SMILES	Env fusion inh	Yeast UUG start
C[C@H](CO)N1C[C@H](C)[C@@H](CN(C)C(=O)CCC(F)(F)F)OCCCC[C@H](C)Oc2ccc(NC(=O)Cc3ccccc3)cc2C1=O	-2.9[16.7 µM]	8.2
C[C@H]1CN([C@@H](C)CO)C(=O)c2cc(NC(=O)CCC(F)(F)F)ccc2O[C@@H]1CN(C)CC1CC1	7.5[16.7 µM]	-13.4
C[C@@H]1CCCCO[C@H](CN(C)C(=O)Nc2ccc(C(F)(F)F)cc2)[C@H](C)CN([C@H](C)CO)C(=O)c2cc(NC(=O)c3ccncc3)ccc2O1	17.2[16.7 µM]	1.5

(next part)
SMILES	Env fusion inh	Yeast UUG start
C[C@@H]1CCCCO[C@H](CN(C)S(=O)(=O)c2cn(C)cn2)[C@@H](C)CN([C@H](C)CO)C(=O)c2cc(NS(=O)(=O)c3ccc(F)cc3)ccc2O1	-10.1[16.7 µM]	2.1
C[C@@H]1CN([C@H](C)CO)C(=O)c2cc(C3=CCCC3)cnc2O[C@H]1CN(C)C(=O)Nc1ccc(C(F)(F)F)cc1	14.3[16.7 µM]	-8.0
O=C(Nc1ccc2c(c1)OCO2)N[C@@H]1CC[C@@H](CCNC(=O)C2CCCCC2)O[C@H]1CO	-7.8[16.7 µM]	-6.8
Cc1ccc(S(=O)(=O)Nc2cccc3c2O[C@@H](CN(C)Cc2ccncc2)[C@H](C)CN([C@H](C)CO)C3=O)cc1	5.6[16.7 µM]	-4.9
CC(=O)N[C@@H]1CC[C@@H](CCNC(=O)C2CCCC2)O[C@@H]1CO	7.1[16.7 µM]	-4.2
O=C(N[C@@H]1CC[C@H](CCNS(=O)(=O)c2ccccc2)O[C@@H]1CO)c1cccc(F)c1	-9.7[16.7 µM]	1.2

Shown as a hit in Env fusion inh, of those listed so far:
SMILES	Env fusion inh	Yeast UUG start
C[C@H](CO)N1C[C@H](C)[C@H](CN(C)S(=O)(=O)c2ccccc2)Oc2ccc(NC(=O)Cn3cnnn3)cc2CC1=O	65.2*[16.7 µM]	3.0
